Screens: PubChem, National Center for Advancing Translational Sciences (NCATS)
VDR inh: vitamin D3 receptor (human) inhibition | P11473 | VDR-SRC2-3 peptide fluorescence polarization, 2 h | Potency, µM, for inactives: max response, negative = inhibition, hits mostly inhibitors | 0.93% of 400,000 active; active means well fitted inhibition curve with a large enough effect; inconclusive means small, poorly fitted or top-dose-only effect, or another doubt; inactive means no such curve, though single readings can be large or run the other way; further: series mostly up to about 120 µM
Target sequence (P11473 whole entry, looked up): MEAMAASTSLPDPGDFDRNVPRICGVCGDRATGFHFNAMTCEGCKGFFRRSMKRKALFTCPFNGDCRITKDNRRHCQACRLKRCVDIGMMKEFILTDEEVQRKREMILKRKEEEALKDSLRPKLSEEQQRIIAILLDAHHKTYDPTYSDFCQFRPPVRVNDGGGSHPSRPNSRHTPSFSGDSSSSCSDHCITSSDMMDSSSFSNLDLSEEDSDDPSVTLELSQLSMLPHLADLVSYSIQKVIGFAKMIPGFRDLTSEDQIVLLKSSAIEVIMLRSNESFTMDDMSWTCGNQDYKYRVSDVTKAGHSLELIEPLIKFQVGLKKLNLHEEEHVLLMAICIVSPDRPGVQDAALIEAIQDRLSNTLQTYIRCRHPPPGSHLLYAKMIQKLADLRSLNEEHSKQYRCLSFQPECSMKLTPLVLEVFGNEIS
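VDR–SRC2-3 interaction, FP format. Cmpds 23 nl via pintool, brief spin, 2 h ambient incubation.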
* marks the source's active call; other numbers are inactive results; ? = inconclusive; & = joins results of further samples. On the % scale 0 is the no-effect control and ±100 the full control effect; potency means the concentration at half of the fitted maximal effect. Some of the compounds tested; count on the stated rates, not on these rows.

> CCn1c(COc2cccc(C)c2)nnc1SCC(=O)CC(=O)Nc1ccccc1OC
  VDR inh: 25%

> COCCn1c(C)cc(C(=O)COC(=O)c2cncc(Br)c2)c1C
  VDR inh: 2%

> COc1cccc(C(C(=O)NC(C)(C)C)N(C(=O)CCC(=O)Nc2cc(C)on2)C2CC2)c1OC (stereo not drawn)
  VDR inh: -3%

> Cc1onc(NC(=O)c2ccc([N+](=O)[O-])o2)c1Br
  VDR inh: -12%

> O=c1oc2ccccc2c(NC2CCCCC2)c1NS(=O)(=O)c1ccc(F)cc1
  VDR inh: ?

> CC(=O)NCCc1ccc(C(=O)COC(=O)C2CCCCC2)cc1
  VDR inh: 3%

> CCCN(C(=O)c1ccco1)c1nnc(-c2ccncc2)s1
  VDR inh: -13%

> CC1=C(c2ccc(C)c(C)c2)S(=O)(=O)N=C1N1CCN(c2cccc(C)c2)C(C)C1 (stereo not drawn)
  VDR inh: -2%

> CCN1CCN(C(=O)c2sc3nc(C)nc(N4CCC(C)CC4)c3c2C)CC1
  VDR inh: 4%

> O=C(c1ccc(OCC2CCCO2)cc1)N1CCN(S(=O)(=O)c2cccc(F)c2)CC1 (stereo not drawn)
  VDR inh: -11%

> Cc1cccc(N2CN=c3s/c(=C\c4ccccn4)c(=O)n3C2)c1
  VDR inh: -8%

> COc1cccc(CC2(CO)CCN(C(=O)NC3CCCCC3)CC2)c1
  VDR inh: -12%

> Cc1ccc2nc(-c3ccsc3)c(NC3CCCC3)n2c1
  VDR inh: -7%

> CCc1ccc2oc(-c3cc(N=Cc4cccc(OC)c4O)ccc3O)nc2c1
  VDR inh: -12%

> N#Cc1c(-c2ccco2)nc(NCC2CCCO2)[nH]c1=O (stereo not drawn)
  VDR inh: 10%

> CCN(C(=O)COC(=O)/C=C/c1cccc(Br)c1)C1CCS(=O)(=O)C1 (stereo not drawn)
  VDR inh: -10%

> Cc1noc(/C=C/c2ccco2)c1S(=O)(=O)N1CCC(C(=O)N2c3ccccc3CC2C)CC1 (stereo not drawn)
  VDR inh: -7%

> Cc1cc(C)n(CCN(C)Cc2nc(Cc3ccccc3F)no2)n1
  VDR inh: 21%

> O=C(O)CCc1ccc(-c2ccccc2)n1CC(=O)O
  VDR inh: -5%

> COc1cccc(C2OC(=O)c3ccccc3N2C(C)=O)c1OC(C)=O (stereo not drawn)
  VDR inh: -11%

> O=C(NCC1CCN(S(=O)(=O)c2ccccc2)CC1)Nc1ccc(F)cc1
  VDR inh: 18%

> O=C(Nc1cc(C(F)(F)F)ccc1N1CCOCC1)c1ccc(Br)o1
  VDR inh: 1%

> CC(C)(C)S(=O)(=O)N1C[C@H]2C(=CC[C@@H]3C(=O)N(c4ccccc4)C(=O)[C@@H]32)[C@H]1CCO
  VDR inh: -7%

> Cc1ccc(S(=O)(=O)N(C)CC(=O)Nc2cccc(C)n2)cc1
  VDR inh: 3%

> S=c1nc(-c2cc(Cl)ccc2Cl)[nH][nH]1
  VDR inh: ?

> CCO[C@@H]1OC(C(=O)Nc2ccccc2)=C[C@H](c2csc3ccccc23)[C@H]1CCCO
  VDR inh: 5%

> Cc1ccc(C(=O)Nc2ccc3c(c2)OCCO3)o1
  VDR inh: 2%

> CCCCNc1cc(C)oc(=O)c1C(C)=O
  VDR inh: 0%

> O=C(Nc1c(C(=O)Nc2ccccc2)cnn1-c1ccccc1)c1ccco1
  VDR inh: 7%

> CC(NS(=O)(=O)c1ccccc1Cl)C1CC2CCC1C2 (stereo not drawn)
  VDR inh: -15%

> CC(Oc1ccccc1)C(=O)N=C1SC2CS(=O)(=O)CC2N1c1ccccc1 (stereo not drawn)
  VDR inh: -23%

> COc1ccc(/C=C/C(=O)Nc2ccc3c(c2)OCCO3)cc1OC
  VDR inh: 2%

> COc1ccccc1C(=O)N(C)c1nnc(-c2ccccc2)s1
  VDR inh: 1%

> CCOC(=O)c1sc2nc(C)[nH]c(=O)c2c1C
  VDR inh: -8%

> O=C(NCc1ccc2[nH]c3c(c2c1)CCCC3)c1ccc(S(=O)(=O)N2CCCC2)cc1
  VDR inh: 2%

> CC1CC(NC(=O)CC#N)CC(C)(C)C1 (stereo not drawn)
  VDR inh: -5%

> COc1ccc(S(=O)(=O)c2ccc(OC)cc2)cc1
  VDR inh: 8%

> Cc1cccc(N2CCN(C(=O)/C=C/c3ccco3)CC2)c1C
  VDR inh: -17%

> Nc1ccccc1O
  VDR inh: 10%

> Cc1cc(C)c(NC(=O)Cn2nnc(S(=O)(=O)c3ccc(C)c(C)c3)c2N)c(C)c1
  VDR inh: -13%

> O=C(CSc1nnc(-c2ccccc2)c(-c2ccccc2)n1)NCCc1ccccc1
  VDR inh: 7%

> Cc1ccc(-n2nc(C)c3c(C(=O)OCC(=O)N(C)C4CCS(=O)(=O)C4)cc(-c4ccccc4)nc32)cc1 (stereo not drawn)
  VDR inh: -17%

> Cc1ccc(Sc2ccc(N3CCCC(C(=O)Nc4ccc(F)cc4)C3)nn2)cc1 (stereo not drawn)
  VDR inh: -11%

> Cc1ccc(S(=O)(=O)N(C)c2ccc(OC(=O)c3ccc(=O)[nH]c3)cc2)cc1
  VDR inh: -5%

> COc1ccc(-c2ccc(S(=O)(=O)n3nc(OC(=O)c4cccs4)cc3N)cc2)cc1
  VDR inh: -8%

> CC(=O)Nc1ccc(SCC(=O)NCC2(N3CCCCC3)CCCCC2)cc1
  VDR inh: ?

> CN(CCOc1ccccc1)C(=O)C1CCC(=O)N(CCCN2CCOCC2)C1 (stereo not drawn)
  VDR inh: -8%

> COc1cc(C(=O)NCc2ccccc2Cl)ccc1OCC(=O)N1CCOCC1
  VDR inh: -3%

> CCc1noc(C)c1C(=O)N(C)CC(=O)Nc1ccc(Cl)c(Cl)c1
  VDR inh: -10%

> Cc1ccccc1NS(=O)(=O)c1ccc2[nH]cc(C(=O)NC(C)c3ccccc3)c(=O)c2c1 (stereo not drawn)
  VDR inh: 20%

> CC1CCN(CC(O)CN2c3ccccc3Sc3ccccc32)CC1 (stereo not drawn)
  VDR inh: -18%

> Cc1nc(-c2ccc(Cl)cc2)sc1C(=O)CBr
  VDR inh: ?

> COc1ccc(NC(=O)C2CCCO2)cc1 (stereo not drawn)
  VDR inh: 11%

> COc1ccc(OCCCC(=O)Nc2nc(-c3ccccn3)cs2)cc1
  VDR inh: -8%

> Cc1c(NS(=O)(=O)c2ccc3c(c2)CCN3C(=O)C2CC2)c(=O)n(-c2ccccc2)n1C
  VDR inh: 3%

> CC(=O)c1ccc(S(=O)(=O)N2CCC(c3nc4ccccc4[nH]3)CC2)cc1
  VDR inh: -2%

> Cc1ccc(C)c(NC(=O)C(C)N(c2ccccc2)S(C)(=O)=O)c1 (stereo not drawn)
  VDR inh: -4%

> COc1ccc(-n2cc(-c3ccc(C)cc3)[n+]3c2SCC3)cc1
  VDR inh: -4%

> NS(=O)(=O)c1ccc(NC(=S)NCCc2ccccc2)cc1
  VDR inh: -19%

> Cc1ccc(-c2cc3c(n2-c2ccc(F)cc2)CC(C)(C)CC3=O)cc1
  VDR inh: -9%

> O=C(CCCc1ccccc1)Nc1ccc(S(=O)(=O)N2CCOCC2)cc1
  VDR inh: 7%

> Cc1nonc1NC(=O)CSc1nnc(N)s1
  VDR inh: 8%

> Cn1c(CN2CCCC2)nc2cc(NC(=O)c3ccco3)ccc21
  VDR inh: 6%

> COc1ccc(C(=O)Oc2ccc(Br)cc2C(=S)N2CCOCC2)cc1
  VDR inh: 25%

> CCCCNc1c(-c2ccc(-c3cccc(Cl)c3)cc2)nc2ccccn12
  VDR inh: 7%

> CCOc1ccc(OCCC(=O)N(CC)CC(=O)Nc2c(F)cccc2F)cc1
  VDR inh: -8%

> COc1cc2[nH]c(=S)n(C3CCN(Cc4ccccc4)CC3)c(=O)c2cc1OC
  VDR inh: 18%

> COc1ccc(/C(=N\O)c2nccc3cc(OC)c(OC)cc23)cc1OC
  VDR inh: 18%

> Cc1csc(NC(=O)c2ccc(Cn3nc(C)c(Br)c3C)o2)n1
  VDR inh: -18%

> COc1ccccc1CNC(=O)C1CCN(C(=O)c2sccc2-n2cccc2)CC1
  VDR inh: -13%&-4%

7 entries from above, arranged by their value in VDR inh, highest first:
canonical_smiles	VDR inh
COc1ccc(C(=O)Oc2ccc(Br)cc2C(=S)N2CCOCC2)cc1	25%
COc1cc2[nH]c(=S)n(C3CCN(Cc4ccccc4)CC3)c(=O)c2cc1OC	18%
Cc1nonc1NC(=O)CSc1nnc(N)s1	8%
CCCCNc1c(-c2ccc(-c3cccc(Cl)c3)cc2)nc2ccccn12	7%
Cn1c(CN2CCCC2)nc2cc(NC(=O)c3ccco3)ccc21	6%
CCOc1ccc(OCCC(=O)N(CC)CC(=O)Nc2c(F)cccc2F)cc1	-8%
Cc1csc(NC(=O)c2ccc(Cn3nc(C)c(Br)c3C)o2)n1	-18%

Later entries
> O=S(=O)(NCCOCC(F)(F)C(F)F)c1ccc2oc3ccccc3c2c1
  VDR inh: 6%

> CC1CC(C)CN(S(=O)(=O)N2CCC(C(=O)NCc3ccco3)CC2)C1 (stereo not drawn)
  VDR inh: -8%

> O=C(CSc1nc(=O)n(CCN2CCOCC2)c2c1CCC2)Nc1cccc(Cl)c1
  VDR inh: -2%

> O=C(Nc1ccccc1Oc1cccnc1)C1CCCN(Cc2ccc(F)cc2)C1 (stereo not drawn)
  VDR inh: 4%

> COc1ccccc1Nc1nc(-c2ccc3c(c2)NC(=O)CO3)cs1
  VDR inh: 3%

> C1CNC(C23CC4CC(CC(C4)C2)C3)=N1
  VDR inh: -3%

> Nc1nnc(-c2ccc(Cl)cc2)s1
  VDR inh: 2%

> O=C(CCNC(=O)c1ccc(Cl)cc1)Nc1c(F)c(F)cc(F)c1F
  VDR inh: 0%

> O=C(CSc1ccncc1)Nc1ccc(S(=O)(=O)Nc2nccs2)cc1
  VDR inh: -4%

> CCS(=O)(=O)c1ncc(Cl)c(C(=O)Nc2c(C(=O)Nc3cccc(C)c3)oc3ccccc23)n1
  VDR inh: 9%

> O=C(c1ccccc1Cl)N1CCN(CCc2ccccn2)CC1
  VDR inh: 2%

> COc1ccc(C(=O)N2CCC(n3nccc3NC(=O)C3CCOC3)CC2)cc1 (stereo not drawn)
  VDR inh: 13%

> O=C(N/N=C/c1cccs1)C(=O)N1CCCC1
  VDR inh: 1%

> CCC(C(=O)N1CCN(C(=O)c2ccco2)CC1)n1sc2ccccc2c1=O (stereo not drawn)
  VDR inh: -6%

> COC(=O)C1(c2ccccc2)NC(c2cccs2)C2C(=O)N(c3ccccc3)C(=O)C21 (stereo not drawn)
  VDR inh: 7%

> Cc1cc(CN(C)C(=O)C2CCC(=O)N(CCc3cccc(F)c3)C2)on1 (stereo not drawn)
  VDR inh: -17%

> NC(=O)[C@H]1CCCN1C(=O)[C@H](Cc1cnc[nH]1)NC(=O)[C@@H]1CCC(=O)N1
  VDR inh: -16%

> CCOC(=O)c1[nH]c2ccccc2c1NC(=O)CC(C)C
  VDR inh: -10%

> CC(=O)Nc1ccc2nc(C3CC3)n(Cc3ccc(Cl)cc3)c(=O)c2c1
  VDR inh: -5%

> O=C(NCCCn1ccnc1)c1ccc(C(F)(F)F)cc1
  VDR inh: -11%

> Cc1nn(C)c(C)c1CNC(=O)Nc1ccc2c(c1)OCO2
  VDR inh: -18%

> CCc1c(C(=O)Nc2ccc(S(=O)(=O)N3CCOCC3)cc2)csc1C
  VDR inh: 9%

> CCc1nc2ccccc2c(NC(=O)CN2CCC(C)CC2)c1C
  VDR inh: 1%

> O=C(Nc1cccc(S(=O)(=O)N2CCCCC2)c1)C1CCCN1S(=O)(=O)c1ccccc1F (stereo not drawn)
  VDR inh: -8%

> CCOc1ccc(Nc2nc(-c3cccc(Cl)c3)c3c(n2)-c2ccccc2OC3)cc1
  VDR inh: -8%

> CC(/C=N/NC(=O)c1ccncc1)=C\c1ccccc1
  VDR inh: 13%

> CCOc1ccc(NC(=O)CSC2=Nc3ccccc3C3=NC(CC(=O)NCc4ccco4)C(=O)N23)cc1 (stereo not drawn)
  VDR inh: 19%

> O=C(CNC(=O)c1ccccc1F)N/N=C/c1cc(Br)ccc1OC(=O)/C=C/c1ccco1
  VDR inh: 10%

> CC1(C)Cc2c(sc(N)c2C#N)C(C)(C)N1
  VDR inh: -5%

> O=C(O)c1cc([N+](=O)[O-])c(N2CCCC2)c([N+](=O)[O-])c1
  VDR inh: -1%

> Cc1cc(-c2nnc(CCC(=O)N(C)Cc3cccc4ccccc34)o2)no1
  VDR inh: 4%

> COc1cccc(-n2cc(C(=O)NCc3ccccc3OC)c3ccccc3c2=O)c1
  VDR inh: 10%

> Cc1ccc(C(=O)c2oc3ccccc3c2NC(=O)Cc2ccccc2)cc1
  VDR inh: -4%

> O=C1NC(Cc2c[nH]c3ccccc23)C(=O)N1CCOc1ccccc1 (stereo not drawn)
  VDR inh: -8%

> O=S(=O)(Nc1nc2ccccc2nc1-[n+]1cccc(N=C([O-])c2ccc(Cl)cc2)c1)c1ccccc1
  VDR inh: 10%

> Cc1ccc2c(c1)C(c1ccccc1)N(C(=O)c1ccc(S(=O)(=O)N3CCCC3)cc1)CC(=O)N2 (stereo not drawn)
  VDR inh: -17%

> Cc1cc(C)cc(NC(=O)Cc2ccc(-n3cccc3)cc2)c1
  VDR inh: ?

> O=C(CN1C(=O)COc2ccc(S(=O)(=O)N3CCCCCC3)cc21)NCc1ccc(Cl)cc1
  VDR inh: 18%

> C=CCN1C(=O)CSC1=Nc1ccc(NC(C)=O)cc1
  VDR inh: 8%

> Cc1ccc(S(=O)(=O)NC2CCCC2)cc1C(N)=O
  VDR inh: 4%

> CC1CN(c2ccc(Cl)cc2[N+](=O)[O-])CCN1S(C)(=O)=O (stereo not drawn)
  VDR inh: -5%

> O=C(CNc1ccc(Cl)c(C(F)(F)F)c1)N1CCN(S(=O)(=O)c2ccccc2)CC1
  VDR inh: -2%

> O=C(CN(C(=O)c1csnn1)c1cccc2c1CCCC2)NCc1ccc(F)cc1
  VDR inh: -10%

> CN(C)S(=O)(=O)c1cccc(-c2nn(-c3ccccc3)cc2/C=C2\SC(=S)NC2=O)c1
  VDR inh: -10%

> CCOc1cc2[nH]c(=S)n(Cc3ccc(C(=O)NCCN(CC)CC)cc3)c(=O)c2cc1OCC
  VDR inh: -11%
